Compound activity as filed in PubChem BioAssay.
HCMV UL50-53 inh – disrupts HCMV UL50-UL53 complex binding; actives 0.15% (n = 190,000); HTRF UL50-UL53 interaction, normalized percent inhibition; inhibition, % (no concentration beside the values);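 active = both replicates at 50% or more, plus weaker picks with an unusually low signal ratio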;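 note: stock transfer was 100 nL into about 20 µL; 0% = negative control wells and 100% = wells with untagged competitor protein; inactives centre near -12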
GIV Gai3 FP – blocks GIV peptide binding to rat Galpha-i3; Galpha-i3/FITC-GIV peptide fluorescence polarization, 90 min; hits give low values; scaled: aluminum fluoride 0%, vehicle 100%; actives 0.42% (n = 210,000); P08753; percent of control (FP), % (concentration not given with the values);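 active = replicate mean at 85% of control or lower, very high polarization wells dropped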;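 note: wells of about 15 µL received 100 nL stock; the first replicate is given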
Target sequence (P08753 whole entry, looked up): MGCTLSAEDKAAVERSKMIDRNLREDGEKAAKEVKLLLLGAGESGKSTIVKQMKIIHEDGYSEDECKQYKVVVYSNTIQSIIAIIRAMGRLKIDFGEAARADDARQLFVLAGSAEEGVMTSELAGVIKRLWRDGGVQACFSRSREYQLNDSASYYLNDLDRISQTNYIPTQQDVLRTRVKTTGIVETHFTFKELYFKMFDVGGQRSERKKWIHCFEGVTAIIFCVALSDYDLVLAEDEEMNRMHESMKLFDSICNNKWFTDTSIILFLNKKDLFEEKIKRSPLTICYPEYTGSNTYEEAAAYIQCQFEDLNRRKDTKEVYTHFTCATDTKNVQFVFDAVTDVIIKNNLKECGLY
Sa growth inh – inhibitors of Staphylococcus aureus growth at 42 °C; S. aureus RN4220 growth, OD600, 20 h; hits give low values; actives 0.53% (n = 170,000); AID 720641; relative growth, % (test concentration not listed);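 active = growth at 42 °C up to 50% and 20 or more points under that at 30 °C, or under 10% at both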;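 note: 300 nL library stock went into each well; scaled to the means of positive and negative controls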
Sa growth inh second temp – further read-out of Sa growth inh, marked with its call; relative growth, %; measured here: growth at 30 °C;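 optical density after 20 h as mean of two plates; 100% = untreated growth and lower means inhibition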
Starred values were filed as active, the others as inactive; nt = no result given; & = joins results of further samples.

canonical_smiles,GIV Gai3 FP,HCMV UL50-53 inh,Sa growth inh,Sa growth inh second temp
CNC(=O)COC(=O)c1c2c(nc3ccccc13)CCCC2,nt,8,99,105
CC(NC(=O)CN1CCc2ccccc2C1)c1ccccc1 (stereo unspecified),nt,-6,89,100
C/C(=N\O)C(C)(C)Nc1ccc2c(c1)OCO2,107,20,82,82
CCOC(=O)C(C#N)c1c(F)c(F)c(Br)c(F)c1F (stereo unspecified),nt,-18,-1.0*,-0.6*
CC(C)(C)c1ccc(S(=O)(=O)N2CCC(Oc3ccc(-n4cnnn4)cc3)CC2)cc1,98,-36,90,89
CC(C)CCn1c(=O)c2ccccc2n2c(CCC(=O)N3CCC(C(N)=O)CC3)nnc12,100,-20,91,93
O=C(CC(c1ccccc1)c1ccccc1)NC1CCCC1,nt,4,103,132
O=C(NC1CC1)C1Cc2ccccc2CN1S(=O)(=O)c1ccc(F)cc1 (stereo unspecified),nt,-42,116,84
CC(C)(C)c1ccc(Oc2ccc(NC(=O)CCC(=O)OCC(=O)c3ccccc3)cc2)cc1,106,-16,97,89
CCn1c(CC2C(=O)Nc3ccccc32)nc2ccccc2c1=O (stereo unspecified),103,-43,86,79

Other compounds follow:
canonical_smiles,GIV Gai3 FP,HCMV UL50-53 inh,Sa growth inh,Sa growth inh second temp
O=C(Oc1ccc(Br)cc1F)C1CC(=O)N(c2ccc3c(c2)OCCO3)C1 (stereo unspecified),nt,-13,103,94
CCC(Sc1ncccc1C(=O)O)C(=O)N1CCCC1 (stereo unspecified),99,nt,93,77
N#CC1(NC(=O)CSc2nnnn2-c2ccc(OC(F)(F)F)cc2)CCCC1,nt,-29,85,95
Cc1cc(NCC2CCCO2)n2nc(C(F)(F)F)c(-c3ccc(Cl)cc3)c2n1 (stereo unspecified),102,-2,nt,nt
O=C1CC(c2nnc(Cc3ccc(F)cc3)o2)CN1c1ccccc1 (stereo unspecified),103,1,109,97
CCn1c(C)[n+](CC)c2ccc(S(=O)(=O)NC)cc21,94,nt,103,90
COc1ccc(C(NC(=O)Cc2ccccc2)c2ccc3cccnc3c2O)cc1OC (stereo unspecified),106,-23,nt,nt
NC(N)=NCCN1CCCCCCC1,nt,-12&6,87,90
CCOc1ccc(CCCN)cc1OCC,102,-13,90,87
CN(CC1COc2ccccc2O1)S(=O)(=O)c1csc(C(N)=O)c1 (stereo unspecified),105,-10,99,84

Remaining list, next part
canonical_smiles,GIV Gai3 FP,HCMV UL50-53 inh,Sa growth inh,Sa growth inh second temp
CCCCOC(=O)c1ccc(N2C(=O)CC(N3CCC(C(N)=O)CC3)C2=O)cc1 (stereo unspecified),107,12,65,65
COC(Cn1c(SCc2ccccc2)nnc1-c1cccc(S(=O)(=O)N(C)C)c1)OC,nt,-21,88,87
N#CCn1c(-c2cccs2)noc1=O,109,-11,101,90
COc1cccc(N(CC(=O)N2CCC(C)CC2)S(=O)(=O)c2ccc(C)cc2)c1,103,-8,95,92
Cc1nc(C2CCOC(C)(C)C2)cs1 (stereo unspecified),102,-8,90,107
O=C(CCn1c(=O)c2sccc2n(Cc2ccc(F)cc2Cl)c1=O)NCc1ccc2c(c1)OCO2,105,-10,103,88
O=C(Nc1n[nH]c(=S)s1)c1ccccc1,104,-18,67,48
COc1ccc(OC)c(S(=O)(=O)NCc2cccn2Cc2cccc(C)c2)c1,105,nt,117,84
Cc1ccc(CSc2nc(-c3ccc(C)cc3)cc(N3CCOCC3)n2)cc1,103,8,nt,nt
CO/C=C1\SC(=S)N(CCc2ccccc2)C1=O,154,-52,94,53

Whole records as entered above.
C/C(=N\O)C(C)(C)Nc1ccc2c(c1)OCO2 in the list: GIV Gai3 FP: 107; HCMV UL50-53 inh: 20; Sa growth inh: 82; Sa growth inh second temp: 82
CCOC(=O)C(C#N)c1c(F)c(F)c(Br)c(F)c1F (stereo unspecified) in the list: GIV Gai3 FP: nt; HCMV UL50-53 inh: -18; Sa growth inh: -1.0*; Sa growth inh second temp: -0.6*
CC(C)(C)c1ccc(S(=O)(=O)N2CCC(Oc3ccc(-n4cnnn4)cc3)CC2)cc1 in the list: GIV Gai3 FP: 98; HCMV UL50-53 inh: -36; Sa growth inh: 90; Sa growth inh second temp: 89

Next part
canonical_smiles,GIV Gai3 FP,HCMV UL50-53 inh,Sa growth inh,Sa growth inh second temp
COC(CNC(=S)Nc1ccccc1Cl)OC,104,-24,102,91
CC12CCC(C(C)(C)O)(CC1)CC2,103,0,115,96
Fc1ccc(N2CCN(c3nc4ccccc4c4nc(-c5cccnc5)nn34)CC2)cc1,103,-22,100,84
COC(=O)c1c(C)nc(C)c(C(=O)OC)c1-c1csc(S(=O)(=O)Nc2ccc(OC)cc2)c1,105,-22,128,88
CCCC1=C(C(=O)OCC)C(c2cccnc2)n2ncnc2N1 (stereo unspecified),105,-10,120,91
Cc1nnc2c3ccccc3nc(Nc3ccc(F)cc3Cl)n12,106,nt,98,86
CC(=O)N1CCN(c2nc3c(C)ccc(Cl)c3s2)CC1,94,nt,100,88
N#Cc1ccc(Oc2ccccc2)cc1S(=O)Cc1ccccc1 (stereo unspecified),nt,1,98,95
CNS(=O)(=O)c1cccc(C(=O)OCC(=O)C(C)(C)C)c1,nt,-24,85,85
NS(=O)(=O)c1cc(C(=O)OCC(=O)N2CCCCC2)c(Cl)cc1Cl,nt,-2,101,98

(listing goes on)
canonical_smiles,GIV Gai3 FP,HCMV UL50-53 inh,Sa growth inh,Sa growth inh second temp
CC1=CCC2C(=O)N(c3ccccn3)C(=O)C2C1 (stereo unspecified),105,nt,98,86
Cc1ccc(OCCSc2nnc(-c3cccs3)o2)cc1,98,7,92,85
COc1ccc(S(=O)(=O)NCCc2sc(-c3ccccc3)nc2C)cc1OC,101,nt,118,76
CCC(CC)NC(=O)c1cc2c(C)nn(Cc3ccccc3Cl)c2s1,nt,-19,93,97
NC(=O)C1CCCCN1Cc1cc(Cl)c2ccccc2c1O (stereo unspecified),nt,-20,54,54
Cc1ccc2c(c1)c(-n1cccc1)c1n2CC(C)(C(=O)NC2CCCC2)N(CC2CCCO2)C1=O (stereo unspecified),104,-22,nt,nt
Cc1ccc(S(=O)(=O)N(C)CC(=O)Nc2ccc(S(N)(=O)=O)cc2)cc1,103,nt,89,88
O=C(CCn1nnc(-c2cccs2)n1)NC1CCCCC1,103,3,92,92
COc1ccc2c(c1)c(C(=O)CNc1nccs1)c(C)n2C,106&95,-4&-14,88,61
COC(=O)C1=C(N)Oc2cc(C)n(Cc3ccccc3)c(=O)c2C1c1ccncc1 (stereo unspecified),99,nt,106,77

Later entries:
canonical_smiles,GIV Gai3 FP,HCMV UL50-53 inh,Sa growth inh,Sa growth inh second temp
Cc1ccccc1Nc1nnc(SC(C)C(=O)N(C)c2ccccc2)s1 (stereo unspecified),nt,-20,95,98
O=C(CNS(=O)(=O)c1cccs1)N1CCN(c2ccccc2F)CC1,100,-2,107,84
CCOC(=O)c1cc(CC)sc1NC(=O)C(C)C,107,-7,122,91
CC1(C)C(=O)Nc2ccccc2N1C(=O)COC(=O)COc1ccccc1,nt,6,95,97
CC(=O)Nc1ccc(N2C(=O)CC(N3CCCCC3C)C2=O)cc1 (stereo unspecified),98,-11,80,84
O=C1OC(CO)CN1Cc1ccccc1 (stereo unspecified),101,-20,100,88
O=C(c1ccc(F)cc1Cl)N1CCN(c2nc(-c3cccs3)ns2)CC1,99,-2,96,108
O=C(Nc1cccc(Br)c1)C1CCC1,nt,0,111,98
O=C(O)CCN1CCCc2ccccc21,nt,-52,89,83
COc1ccc(/C=C2\SC(=S)N(CC(=O)Nc3ncc(Cc4ccc(C)cc4)s3)C2=O)cc1OC,98,-4,nt,nt

More results follow:
canonical_smiles,GIV Gai3 FP,HCMV UL50-53 inh,Sa growth inh,Sa growth inh second temp
CN(C)S(=O)(=O)N(CC(=O)Nc1ccc(Br)cc1F)c1ccccc1,98,-2,107,95
Cc1ccc(-c2noc(CN(C(=O)COc3cc(C)cc(C)c3C)C(C)C)n2)cc1,97,-21,115,93
CC/C(=N/NC(=O)C1C2CCCCC21)c1ccc(O)cc1 (stereo unspecified),94,-29,94,72
CCCCn1c(=NC(=O)C(C)Oc2ccccc2)c(C(=O)OCC)cc2c(=O)n3ccccc3nc21 (stereo unspecified),99,nt,94,88
COc1ccccc1NC(=O)C1CC(=O)N(CCc2ccccc2)C(=Nc2ccccc2)S1 (stereo unspecified),101,-4,nt,nt
COC(=O)c1cc(-c2ccccc2C(F)(F)F)no1,nt,-6,104,85
Cc1nc2ccccc2n(CC(=O)Nc2ccc(Cl)cc2)c1=O,103,-60,nt,nt
CCc1cccc(N2C(=O)N(CC(=O)NCc3cccc(OC)c3OC)c3ccccc3S2(=O)=O)c1,107,nt,115,84
CSc1nc(N)nc(N2CCOCC2)n1,102,-3,106,72
CCOc1cc(C2c3c(oc4ccccc4c3=O)C(=O)N2c2ccccn2)ccc1O (stereo unspecified),108,1,96,95

The list goes on.
canonical_smiles,GIV Gai3 FP,HCMV UL50-53 inh,Sa growth inh,Sa growth inh second temp
CCc1cc2cc(C)cc(C)c2nc1SCC(=O)N1CCN(C(=O)c2ccco2)CC1,96,2,83,86
Cc1ccccc1OCC(=O)Nc1ccc(-c2nc3cc(Cl)cc(Cl)c3o2)cc1,101,-41,90,91
FC(F)(F)c1cnc2c(c1)Nc1ccccc1S2,nt,-44,95,82
O=c1ccc2c(C(F)(F)F)cc(C(F)(F)F)nc2[nH]1,105,-60,nt,nt
N#CSc1ccc(Nc2cc(N3CCOCC3)c3nonc3c2[N+](=O)[O-])cc1,104,-26,nt,nt
O=S(=O)(Nc1ncccn1)c1ccc(NC(=S)NN2CCOCC2)cc1,103,-10,109,98
Cc1ccc2c(c1)N(CC(=O)NC1CCCCC1C)C(=O)CO2 (stereo unspecified),95,nt,106,85
Cc1ccc(S(=O)(=O)N2CCCOC2)cc1,103,-21,103,78
O=C(CCC(=O)N1CCOc2ccccc21)N1CCCCC1,106,nt,112,86
COc1ccc(C2C3CCC=C3C(C#N)=C(N)C2(C#N)C#N)cc1 (stereo unspecified),nt,-33,96,67

(continued)
canonical_smiles,GIV Gai3 FP,HCMV UL50-53 inh,Sa growth inh,Sa growth inh second temp
COc1cc(Br)cc(/C=C2\Sc3ccccc3C2=O)c1O,104,-2,nt,nt
NC(=O)c1ccc[n+]([O-])c1,102,12,99,100
CCOc1cc(C2C(C#N)=C(N)Oc3n[nH]c(-c4ccc5ccccc5c4)c32)ccc1O (stereo unspecified),101,-39,nt,nt
COC(=O)c1ccc(NC(=O)CN(c2cccc(C(F)(F)F)c2)S(C)(=O)=O)cc1,107,-8,108,84
CCOC(=O)c1ncn(Cc2ccccc2)c1N,104,-12,81,78
COc1ccc(C2CC3(C)CC(=O)C2C(C#N)(C#N)C3(C#N)C#N)cc1 (stereo unspecified),136,-59,85,64
Cc1cccc(-c2noc(CCCn3c(=O)[nH]c4cc5c(cc4c3=O)OCO5)n2)c1,103,0,nt,nt
CCc1ccc(NC(=O)c2cc(C)nn2-c2ccccc2)cc1,104,-20,107,87
O=C(c1ccc2c(c1)sc1nc(-c3ccc(F)cc3)cn12)N1CCOCC1,101,-16,78,39
COc1ccc(Cn2c(=O)sc3ccccc3c2=O)cc1,101,17,nt,nt

(more compounds)
canonical_smiles,GIV Gai3 FP,HCMV UL50-53 inh,Sa growth inh,Sa growth inh second temp
COCCNC(=O)c1cc2n(n1)CCCN(Cc1ccc(C)cc1)C2=O,96,nt,94,92
C=CCn1c(C)cc(C(=O)CSc2nnc(-c3ccccc3)n2CC)c1C,nt,-7,95,91
O=C1/C(=C\c2ccc(Br)o2)CC/C1=C/c1ccc(Br)o1,281,nt,73,71
CC(CCc1ccc(O)cc1)NCCc1ccc(O)c(O)c1 (stereo unspecified),102&108,-9&-6&-20&-45,88,80
Cc1ccc(C(=O)c2cnc3cc4c(cc3c2N2CCN(C)CC2)OCO4)cc1C,106,nt,104,63
CC(=O)N1CCc2cc(S(=O)(=O)CCC(=O)Nc3c(C)cccc3C)ccc21,101&106,4&-6,96,101
O=C(CN1C(=O)CCn2nc(-c3ccccc3)cc21)NCc1ccccc1,105,nt,112,100
O=c1n(S(=O)(=O)c2ccccc2)c2ccccc2n1S(=O)(=O)c1ccccc1,nt,1,101,95
COc1ccccc1Nc1n[nH]c(=S)s1,101,-1,37,28
c1ccc(-n2cc3c(c2)CCc2cn(-c4ccccc4)cc2CC3)cc1,nt,-22,94,86

Next section:
canonical_smiles,GIV Gai3 FP,HCMV UL50-53 inh,Sa growth inh,Sa growth inh second temp
CC1(CO)CSC(Nc2cccnc2)=N1 (stereo unspecified),98,-3,108,91
C/C(=N\NC(N)=O)C1CC(c2ccccc2)C(=O)O1 (stereo unspecified),109,-1,107,82
CCCC(=O)Nc1nc(C(=O)OCC)cs1,105,-18,87,72
CC(C)N1CCC2(CC1)C(C#N)=C(O)NC1=C2C(=O)CC(C)(C)C1,nt,-34,94,112
Cc1cc2[nH]c(=S)[nH]c2cc1C,105,-10,93,83
O=c1c2c3c(sc2nc2sc(C4CC4)nn12)CCCC3,nt,-15,93,89

An excerpt from above in order of the Sa growth inh value, smallest number first:
| structure | GIV Gai3 FP | Sa growth inh | Sa growth inh second temp |
| --- | --- | --- | --- |
| CCCC(=O)Nc1nc(C(=O)OCC)cs1 | 105 | 87 | 72 |
| Cc1cc2[nH]c(=S)[nH]c2cc1C | 105 | 93 | 83 |
| CC(C)N1CCC2(CC1)C(C#N)=C(O)NC1=C2C(=O)CC(C)(C)C1 | nt | 94 | 112 |
| C/C(=N\NC(N)=O)C1CC(c2ccccc2)C(=O)O1 (stereo unspecified) | 109 | 107 | 82 |
| CC1(CO)CSC(Nc2cccnc2)=N1 (stereo unspecified) | 98 | 108 | 91 |
